Bioassay records deposited in PubChem by National Center for Advancing Translational Sciences (NCATS).
TRPV1 potentiator = HTS Assay for Compounds that Act as Potentiators of the Vanilloid Receptor 1 | TRPV1-expressing cells, Fluo-8 calcium influx, capsaicin EC20 potentiation; host cell line not named in the record; control for the full effect not named in the record | 0.02% of 320,000 active | potentiation, % at 8.33 µM | Transient receptor potential cation channel subfamily V member 1 (Homo sapiens), Q8NER1; active means potentiation above 80%; inconclusive means 30% to 80%; inactive means below 30%; further: 0% is about no effect
Target sequence (Q8NER1 whole entry, looked up): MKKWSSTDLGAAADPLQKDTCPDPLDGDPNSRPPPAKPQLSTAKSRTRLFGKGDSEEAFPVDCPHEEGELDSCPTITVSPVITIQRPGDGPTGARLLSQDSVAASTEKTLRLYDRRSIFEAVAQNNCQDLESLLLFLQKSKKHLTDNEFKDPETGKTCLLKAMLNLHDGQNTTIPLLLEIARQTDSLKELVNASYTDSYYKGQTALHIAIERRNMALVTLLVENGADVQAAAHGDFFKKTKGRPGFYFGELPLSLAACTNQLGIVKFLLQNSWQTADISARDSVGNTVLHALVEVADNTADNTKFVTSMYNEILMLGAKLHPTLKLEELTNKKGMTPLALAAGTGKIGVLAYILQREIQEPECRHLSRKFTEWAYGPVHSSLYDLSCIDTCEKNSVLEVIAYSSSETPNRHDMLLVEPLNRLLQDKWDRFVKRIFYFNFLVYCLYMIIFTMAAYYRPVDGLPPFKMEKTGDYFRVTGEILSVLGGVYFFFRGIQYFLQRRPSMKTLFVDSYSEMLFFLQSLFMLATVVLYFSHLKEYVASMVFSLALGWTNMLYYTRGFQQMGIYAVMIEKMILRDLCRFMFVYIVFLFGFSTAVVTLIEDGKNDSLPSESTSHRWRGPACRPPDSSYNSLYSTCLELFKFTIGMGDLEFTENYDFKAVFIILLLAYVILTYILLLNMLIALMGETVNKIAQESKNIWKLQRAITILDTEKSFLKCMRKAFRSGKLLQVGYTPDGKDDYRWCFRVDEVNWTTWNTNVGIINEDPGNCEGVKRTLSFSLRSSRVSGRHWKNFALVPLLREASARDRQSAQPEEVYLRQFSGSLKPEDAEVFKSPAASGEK
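Fluo-8 calcium influx in TRPV1-expressing cells, kinetic read (ex 480/em 520 nm). Compound added and read 3 min for agonist activity, followed by capsaicin at EC20 final and 2 min further read for enhancement.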
Sfp PPTase inh = qHTS Assay for Inhibitors of Bacillus subtilis Sfp phosphopantetheinyl transferase (PPTase); 3.5% of 310,000 active; 4'-phosphopantetheinyl transferase ffp (Bacillus subtilis), Q9F4F7; Potency, µM, inactives show max response, negative = inhibition, usual class: inhibitors; Biochemical Sfp PPTase activity, qHTS; active means well fitted inhibition curve with a large enough effect; inconclusive means small, poorly fitted or top-dose-only effect, or another doubt; inactive means no such curve, though single readings can be large or run the other way;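 further: the enzyme is Sfp with the accession as filed and its product quenches rhodamine fluorescence; potency means the concentration at half of the fitted maximal effect; 0% = enzyme reaction without inhibitor and -100% = no enzyme wells; top concentration of the series not given in the record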
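After 15 min at room temperature with compound, 15 nM Sfp received 5 uM rhodamine-CoA plus 12.5 uM BHQ-2-ybbR (50 mM Hepes pH 7.6, 10 mM MgCl2). Rate came from the fluorescence difference over 30 min, ex 525/em 598 nm.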
* = called active by the depositor; ? = inconclusive; . = no result given; & = joins results of further samples; [ ] = remark or other dose. These rows are one share of the data, so the mix of outcomes need not match the whole.

SMILES	TRPV1 potentiator	Sfp PPTase inh
CO[C@@H]1C=CO[C@]2(C)Oc3c(C)c(O)c4c(O)c(c(C=NN5CCN(C)CC5)c(O)c4c3C2=O)NC(=O)C(C)=CC=C[C@H](C)[C@H](O)[C@H](C)[C@H](O)[C@H](C)[C@H](OC(C)=O)[C@H]1C	.	12%
C=C1C[C@@]23C[C@]1(O)CC[C@@H]2[C@]12C=C[C@@H](O)[C@](C)(C(=O)O1)[C@H]2[C@H]3C(=O)O	.	-2%
CCN[C@@H]1CN(CCCOC)S(=O)(=O)c2sc(S(N)(=O)=O)cc21	.	14%
CCCCCCCCCCCCCC[C@@H](O)[C@@H](O)[C@H](CO)NC(C)=O	.	?
COc1ccc(-c2noc(CC(=O)O)c2-c2ccc(OC)cc2)cc1	.	33%
OCC1O[C@@H](O[C@@H]2C(CO)OC(O)C(O)C2O)C(O)C(O)C1O (stereo partly specified)	.	28%
COC(=O)C/C=C/[C@@H](C)[C@H](OC)c1c(Br)ccc2c1OCO2	.	9%
COc1ccc(-c2cc(C3C4C=CCC(C)C4C(=O)N3Cc3ccccc3)ccc2F)cc1OC (stereo unspecified)	.	-19%
CCC(=O)C(C(=O)OC)[C@H](CCc1ccccc1)NC(=O)OC (stereo partly specified)	.	10%
CN(N=O)C(=O)N[C@H]1[C@@H](O)[C@H](O)[C@H](CO)O[C@@H]1O	.	22%
C=C(C)C(=O)c1ccc(OC)cc1	.	31%[activator]
COC(=O)C(CCSC)NS(=O)(=O)c1ccccc1Br (stereo unspecified)	.	16%
Cc1cc(F)c(Nc2ncnc3cc(OCc4ccccc4)ccc23)cc1O	.	7%
COC(=O)C1=C[C@@H](C(=O)OC)[C@H]2C3=C(C(=O)[C@@]2(C)NC(=O)c2ccccc2)[C@H](C)C(C(=O)OC)=C(C(=O)OC)[C@@H]3C1	.	0%
C=CC[C@@H]1C=C[C@@H](O/N=C(/C)CCC(=O)OC[C@@H]2O[C@H](C#Cc3ccccc3)C=C[C@@H]2Oc2ccc(C)cc2)[C@@H](CO)O1	.	9%
C=C1/C(=C\C=C2/CCC[C@]3(C)[C@@H]([C@H](C)/C=C/[C@@H](O)C4CC4)CC[C@@H]23)C[C@@H](O)C[C@@H]1O	.	-6%
Nc1ccn([C@@H]2O[C@H](CO)[C@@H](OP(=O)(O)O)[C@H]2O)c(=O)n1	.	14%
C#CCCCO/N=C1/C[C@@H](O)[C@@H](O)[C@@H]2[C@@H]3C(=O)N(c4cccc(Oc5ccccc5)c4)C(=O)[C@H]3CC[C@@H]12	.	17%
COC(=O)[C@@]1(Cc2ccccc2)[C@H]2c3cc(C(=O)N4CCCC4)n(Cc4ccccc4)c3C[C@H]2CN1C(=O)c1ccccc1	.	5%
O=C(O)COc1ccccc1/C=N/NC(=O)c1ccncc1	.	50µM*

5 structures from above, ordered by formula weight, smallest number first:
SMILES	TRPV1 potentiator	Sfp PPTase inh
COc1ccc(-c2noc(CC(=O)O)c2-c2ccc(OC)cc2)cc1	.	33%
OCC1O[C@@H](O[C@@H]2C(CO)OC(O)C(O)C2O)C(O)C(O)C1O (stereo partly specified)	.	28%
CCN[C@@H]1CN(CCCOC)S(=O)(=O)c2sc(S(N)(=O)=O)cc21	.	14%
C#CCCCO/N=C1/C[C@@H](O)[C@@H](O)[C@@H]2[C@@H]3C(=O)N(c4cccc(Oc5ccccc5)c4)C(=O)[C@H]3CC[C@@H]12	.	17%
COC(=O)[C@@]1(Cc2ccccc2)[C@H]2c3cc(C(=O)N4CCCC4)n(Cc4ccccc4)c3C[C@H]2CN1C(=O)c1ccccc1	.	5%

Later entries:
SMILES	TRPV1 potentiator	Sfp PPTase inh
CCS(=O)(=O)N(C)[C@@H]1c2cc(C#N)ccc2OC(C)(C)[C@H]1O	.	28%&-6%
CC(C)(Oc1ccc([C@@H]2CC2(Cl)Cl)cc1)C(=O)O	.	24%
CC(=O)O[C@@H]1C(=O)[C@@]2(C)[C@H](O)C[C@H]3OC[C@]3(OC(C)=O)[C@@H]2[C@H](OC(=O)c2ccccc2)[C@@]2(O)C[C@H](OC(=O)[C@@H](O)[C@@H](NC(=O)c3ccccc3)c3ccccc3)C(C)=C1C2(C)C (stereo in doubt)	.	?
C[C@@H](C(=O)Cc1ccc2ccccc2c1)[C@@H]1C[C@@]1(C)[C@@H](NP(=O)(c1ccccc1)c1ccccc1)c1ccccc1	.	36%[activator]
CCCCC/C=C\C/C=C\C/C=C\C=C\C1CCCC(=O)O1 (stereo unspecified)	.	0%
CNC(CC(=O)O)C(=O)O (stereo unspecified)	.	-12%
Cc1ccc2cc3c(N)c(C(=O)N4CC(=O)Nc5ccccc54)sc3nc2c1	.	-17%
CCN1C(C)=C(C(=O)OC)C(c2ccccc2)N2C(=O)[C@](O)(C(=O)OC)CC(C#N)=C12 (stereo partly specified)	.	26%
CC(C)(C)c1ccc(C(=O)N2CCC(=O)N([C@H](COCc3ccc(Cl)cc3)Cc3ccccc3)CC2)cc1	.	6%
C[C@@H]1OC(O[C@H]2[C@H](Oc3cc(O)c4c(=O)c(O)c(-c5ccc(O)cc5)oc4c3)O[C@H](CO)[C@@H](O)[C@@H]2O)[C@H](O)[C@H](O)[C@H]1O (stereo partly specified)	.	-6%
C=C(C)C(O)/C=C/C=C/c1ccccc1 (stereo unspecified)	.	3%
COc1cc2oc(=O)cc(-c3ccc(-c4cccc(N)c4)cc3)c2c(OC)c1OC	.	-27%
OC[C@H]1O[C@@H](OC[C@H]2O[C@@H](O)[C@H](O)[C@@H](O)[C@@H]2O)[C@H](O)[C@@H](O)[C@@H]1O	.	7%
CC(=O)N[C@H](Cc1c[nH]c2ccccc12)C(N)=O	.	15%
COc1ccc(-c2ccc(N(C)C)cc2)cc1C1C2C=CCCC2(C)C(=O)N1Cc1ccccc1 (stereo unspecified)	.	?
NC(N)=NCCC[C@H](NC(=O)[C@H](Cc1ccccc1)NC(=O)[C@@H]1CCCN1C(=O)[C@H](CO)NC(=O)[C@H](Cc1ccccc1)NC(=O)CNC(=O)[C@@H]1CCCN1C(=O)[C@@H]1CCCN1C(=O)[C@@H](N)CCCN=C(N)N)C(=O)O	.	5%
Cc1ccc(/C=C/C2=C[C@]3(C)C[C@]2(C)[C@H](c2ccc(C)cc2)CC3=O)cc1	.	5%
CC(=O)N1[C@H](Cc2ccccc2)C=C[C@]1(C)C(=O)O	.	25%
CC(C)C(=O)N[C@H]1CCCN1C(=O)/C=C\c1ccccc1	.	-2%
CNC1C(OC2C(O[C@@H]3C(O)C(O)[C@@H](N=C(N)N)C(O)C3N=C(N)N)OC(C)[C@@]2(O)CO)OC(CO)C(O)C1O (stereo partly specified)	.	10%
OC[C@H]1OC(O)(CN2CCOCC2)[C@H](O)[C@@H]1O (stereo partly specified)	.	-3%
COc1ccc(-c2nc(-c3ccccc3)c(NC(C)C)o2)cc1	.	-8%
CC(=O)Nc1ccc(SCCN2CCN(CC(C)C)CCC2=O)cc1	.	45µM*
CCCCC/C=C\C/C=C\C/C=C\CCCCC(=O)NC(C)C(=O)O (stereo unspecified)	.	6%
CC(C)C[C@@H](C(=O)N[C@@H](Cc1c[nH]c2ccccc12)C(N)=O)N1C[C@]2(CCCN2C(=O)[C@H](Cc2ccccc2)NC(=O)[C@H](Cc2ccccc2)NC(=O)[C@H](CCC(N)=O)NC(=O)[C@H](CCC(N)=O)NC(=O)[C@@H]2CCCN2C(=O)[C@H](CCCCN)NC(=O)[C@@H]2CCCN2C(=O)[C@@H](N)CCCNC(=N)N)CC1=O	.	-2%
C=CC[C@@H]1[C@H](O)CC[C@@]2(C)[C@H]1CC[C@@H]1[C@@H]2CC[C@]2(C)C([C@H](C)CCCC(C)C)CC[C@@H]12 (stereo partly specified)	.	9%
Cc1cc(=O)c2c(O)cc(O)c(C)c2o1	.	-12%
O=P1(O)Oc2c(c(-c3ccccc3)cc3ccc4ccccc4c23)-c2c(-c3ccccc3)cc3ccc4ccccc4c3c2O1	.	-23%
C=CCc1cccc(C2NC(C(=O)O)CCC2C)c1 (stereo unspecified)	.	4%
C[C@@H](C(=O)Nc1ccc2ccccc2c1)[C@@H]1C[C@@]1(C)[C@@H](NS(=O)(=O)c1ccc2ccccc2c1)c1ccccc1	.	19%
COCCN1C(=O)N[C@@H](c2cccc(C(F)(F)F)c2)C(C(C)=O)=C1C	.	-1%
CCOC(=O)C[C@@H](CC(C)=O)C(=O)OCC	.	-1%
CC(C)C[C@H](NC(=O)[C@H](CO)NC(=O)[C@@H]1CCCN1C(=O)[C@H](Cc1ccc(O)cc1)NC(=O)[C@H](CC(C)C)NC(=O)[C@H](CC(C)C)NC(=O)[C@@H]1CCCN1C(=O)[C@@H](NC(=O)[C@H](CO)NC(=O)[C@H](CO)NC(=O)[C@H](CO)NC(=O)[C@H](CO)NC(=O)[C@@H]1CCCN1C(=O)[C@@H](NC(=O)[C@@H](N)CO)C(C)C)[C@@H](C)O)C(=O)N[C@@H](C)C(=O)N[C@@H](CC(C)C)C(=O)N1CCC[C@H]1C(=O)N[C@@H](C)C(=O)N1CCC[C@H]1C(=O)O	.	7%
CCC(=O)O[C@H]1C(O[C@@H]2C(C)[C@H](O[C@H]3C[C@@](C)(OC)C(O)C(C)O3)C(C)C(=O)OC(CC)[C@@](C)(O)C(O)[C@H](C)C(=O)C(C)C[C@]2(C)O)OC(C)CC1N(C)C (stereo partly specified)	.	-28%
CCCCCCCCCCCCC/C=C/[C@@H](O)[C@H](CO)NC(C)=O	.	25%
CC(=O)OC1C[C@]2(C)C(C(C)=O)CCC2C2CCC3=CC(=O)CC[C@@]3(C)C12 (stereo partly specified)	.	11%
C/C(CCN1CCCc2nc(C)c(C)cc21)=N\OC[C@@H](C)[C@H](OCc1ccccc1)C(C)C	.	-4%
CO[C@@H]1COC(=O)[C@H]2CCCN2C(=O)[C@@H](C)COC(=O)C/C=C\[C@H]1C	.	15%
COc1cc(SC)ccc1C(=O)N1CCC(Cc2ccccc2)CC1	.	-12%
N=C(CC(O)COc1ccccc1-c1ccccc1)N1CCCCC1 (stereo unspecified)	.	9%&15%
CCN(CC)CCOc1ccc(C(O)(Cc2ccc(Cl)cc2)c2ccc(C)cc2)cc1 (stereo unspecified)	.	?
CC(=O)[C@H]1CC[C@@H]2[C@H]3CC=C4C[C@@H](O)CC[C@]4(C)[C@H]3CC[C@]12C	.	21%
COC1/C=C/OC2(C)Oc3c(C)c(O)c4c(O)c(c(/C=N/N5CCN(C)CC5)c(O)c4c3C2=O)NC(=O)/C(C)=C/C=C/C(C)C(O)C(C)C(O)C(C)C(OC(C)=O)C1C (stereo unspecified)	.	-30%
CCOC(=O)OCC1OC(C#Cc2ccc(C(C)(C)C)cc2)C=CC1OC(=O)OCC (stereo unspecified)	.	10%
CCC[C@H](NC(=O)[C@H](Cc1ccc(O[S+](=O)([O-])O)cc1)NC(=O)OC(C)(C)C)C(=O)NCC(=O)N[C@@H](Cc1c[nH]c2ccccc12)C(=O)N[C@@H](CCC)C(=O)N[C@@H](CC(=O)OCCc1ccccc1)C(=O)O	.	8%
O=C(O)c1ccncc1	.	14%
CCCn1c(C)nc2c(NCCN(C(C)C)C(C)C)nc(C)nc21	.	17%
CC(C)[C@@H]1NC(=O)[C@H](CCCCN)NC(=O)[C@@H](Cc2c[nH]c3ccccc23)NC(=O)[C@H](Cc2ccc(O)cc2)NC(=O)[C@@H](NC(=O)[C@H](N)Cc2ccccc2)CSSC[C@@H](C(=O)N[C@@H](Cc2c[nH]c3ccccc23)C(N)=O)NC1=O	.	26%
O=C(COc1ccc(F)cc1Cl)Nc1nc(-c2ccccn2)cs1	0	.
CC1(C)C(=O)CC[C@@]2(C)[C@H]1CC[C@@]1(C)CC3=C(CC[C@@H]12)[C@@]1(C)CCC(=O)C(C)(C)[C@@H]1CC3	?	.
O=C1NC(Cc2ccccc2)c2nc3ccccc3c(=O)n2-c2cc(Cl)ccc21 (stereo unspecified)	-5	.
C=C1C=C(C(F)F)n2ncc(C(=O)Nc3ccc(C(C)CC)cc3)c2N1 (stereo unspecified)	-1	.
N#Cc1ccsc1NC(=O)CN1C(=O)NC2(CCCC2)C1=O	-23	.
C#CCOCCOCCOCCNc1nc(N2CCN(C(=O)CCCCCCCCCCNC(=O)[C@H]([C@@H](C)CC)n3cc(CCCCCN)nn3)CC2)nc(N2CCN(C(=O)CCCCCCCCCCNC(=O)[C@H]([C@@H](C)CC)n3cc(CCCCN=C(N)N)nn3)CC2)n1	5	.
Cc1noc(C)c1CSCC(=O)Nc1ccccc1N1CCCCC1	16	.
O=C1NC(Cc2ccccc2)c2nc3cc(F)ccc3c(=O)n2-c2cc(Cl)ccc21 (stereo unspecified)	10	.

One compound at a time, from the list above.
Profile of CCC[C@H](NC(=O)[C@H](Cc1ccc(O[S+](=O)([O-])O)cc1)NC(=O)OC(C)(C)C)C(=O)NCC(=O)N[C@@H](Cc1c[nH]c2ccccc12)C(=O)N[C@@H](CCC)C(=O)N[C@@H](CC(=O)OCCc1ccccc1)C(=O)O → TRPV1 potentiator: .; Sfp PPTase inh: 8%
Profile of O=C(COc1ccc(F)cc1Cl)Nc1nc(-c2ccccn2)cs1 → TRPV1 potentiator: 0; Sfp PPTase inh: .
